# VDR inh = blocks the human vitamin D receptor. hit rate 0.93% among 400,000. Potency, µM, for inactives: max response, negative = inhibition, most hits filed as inhibitors. AID 504847. VDR-SRC2-3 peptide fluorescence polarization, 2 h; active means well fitted inhibition curve with a large enough effect; inconclusive means small, poorly fitted or top-dose-only effect, or another doubt; inactive means no such curve, though single readings can be large or run the other way; further: series mostly up to about 120 µM
# Target sequence (P11473 whole entry, looked up): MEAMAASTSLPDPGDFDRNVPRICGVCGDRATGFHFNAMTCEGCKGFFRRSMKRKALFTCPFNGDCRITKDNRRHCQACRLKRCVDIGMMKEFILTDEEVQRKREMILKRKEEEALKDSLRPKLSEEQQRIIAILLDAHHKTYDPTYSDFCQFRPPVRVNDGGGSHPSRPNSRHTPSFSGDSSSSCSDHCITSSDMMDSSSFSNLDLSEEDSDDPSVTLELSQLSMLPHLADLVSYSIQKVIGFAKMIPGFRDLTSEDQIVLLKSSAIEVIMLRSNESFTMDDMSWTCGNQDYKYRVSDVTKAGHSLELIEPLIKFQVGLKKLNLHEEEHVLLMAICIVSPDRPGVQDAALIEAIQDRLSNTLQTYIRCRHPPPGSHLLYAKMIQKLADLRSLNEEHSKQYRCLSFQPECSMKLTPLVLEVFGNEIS
#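 Signal is fluorescence polarization, reporting how far test compounds block the interaction of VDR with the SRC2-3 coregulator peptide after a 2 h room-temperature incubation.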
# The depositor's hits bear a star; ? = inconclusive; & = joins results of further samples; [ ] = dose if it differs, or a comment. On the % scale 0 is the no-effect control and ±100 the full control effect; potency means the concentration at half of the fitted maximal effect. An excerpt; rates above refer to the full screens.
smiles | VDR inh
COc1ccc(S(=O)(=O)N2CCCC(C(=O)NCc3ccc(F)cc3)C2)cc1 (stereo not drawn) | 11%
CCN(C(=O)CSc1nc2cc(C(F)(F)F)ccc2n1Cc1ccccc1)C1CCS(=O)(=O)C1 (stereo not drawn) | -14%
O=C(COC(=O)C1CC(=O)N(c2nc(-c3ccccc3)cs2)C1)c1ccccc1 (stereo not drawn) | -6%
CCN1CCN(c2ncnc3c2cnn3-c2ccc(C)c(Cl)c2)CC1 | 8%
Cc1ccnc(NC(=O)c2cc3cc(F)ccc3s2)c1 | 4%
COc1ccc(-n2c(=O)c3c4c(sc3n(Cc3ccccc3Cl)c2=O)CCC4)c(OC)c1 | -6%
Cc1cc2cc(CN(Cc3ccco3)S(=O)(=O)c3c(C)ccc4nsnc34)c(=O)[nH]c2cc1C | 11%
COc1ccc(/C=C2\N=C(C)OC2=O)cc1OC | ?
O=C(O)c1ccccc1C(=O)Nc1ccccc1NC(=O)c1ccccc1C(=O)O | 11%
COc1cccc2cc(C(=O)N3CCN(c4ccc(C)cc4C)CC3)c(=O)oc12 | -4%
O=C(COC(=O)c1ccc(N2CCOCC2)c([N+](=O)[O-])c1)Nc1ccc2c(c1)OCO2 | -11%
FC(F)(F)c1cc(C(F)(F)F)c2ccc(N3CCN(c4ccccc4)CC3)nc2n1 | -7%
Cc1ccc(C(=O)/C=C/NCc2ccc(F)cc2)cc1 | 0%
O=c1cc(-c2cccc(Br)c2)oc2cccc(O)c12 | -6%
CCCCOc1ccc(N(CC(=O)NC2CCCCC2)C(=O)c2snc(C(N)=O)c2N)cc1 | ?
O=C(NCCc1ccccc1)c1ccc2c(c1)nc1n2CCOC1 | 20%
CN(/N=C/c1cc(Cl)cc(Cl)c1O)c1c(Cl)cccc1[N+](=O)[O-] | 1%
COc1c(CC=C(C)C)c(O)cc2oc(=O)c3c4ccc(O)cc4oc3c12 | -3%
NC(=O)CSc1nc2cc3c(cc2c(=O)n1CCCC(=O)NCc1ccc2c(c1)OCO2)OCO3 | -2%
COc1ccc(NS(=O)(=O)c2cccc(C(=O)NNC(=O)c3cc(S(N)(=O)=O)ccc3OC)c2)cc1 | 19%
Nc1c(C(=O)C2CC2)sc2nc(-c3cccs3)cc(C(F)(F)F)c12 | -11%
CCn1nc(NC(=O)COC)c2cc3cccc(C)c3nc21 | 11%
COc1ccc(N2CCN(S(=O)(=O)c3ccc(Cl)s3)CC2)cc1 | 8%
CCn1c(SCC(=O)N2CCCCC2)nc2c1c(=O)n(C)c(=O)n2C | 7%
CC(C)(C)c1ccc(-c2ccc3c(c2)S(=O)(=O)c2ccccc2C3=O)cc1 | -24%
COc1ccc(Cl)cc1NC(=O)Cn1c(=O)oc2ccccc21 | -6%
CN=c1scc(-c2cc(OC)ccc2OC)n1/N=C/c1c(C)[nH]c2ccccc12 | 12%
Cc1cccc(S(=O)(=O)Nc2cc(Cl)ccc2N2CCOCC2)c1 | 34%[activator]
CN(CC(=O)Nc1ccc(F)cc1)C(=O)C1CCN(S(=O)(=O)c2ccc3c(c2)OCCO3)CC1 | -5%
CCOc1ccc(N(CC(=O)NCc2ccccc2)S(=O)(=O)c2ccc(C)cc2)cc1 | 5%
COc1ccc(OCCCC(=O)Nc2ccc3c(c2)OCO3)cc1 | 7%
Cc1cc(NC(=O)/C=C/c2cccc(F)c2)n(-c2nc3ccccc3[nH]2)n1 | 1%
Cc1cc(CNC(=O)C2CCC(=O)N(CCc3cccc(F)c3)C2)on1 (stereo not drawn) | 26%
CC1Cc2ccccc2N1C(=O)CN1CCc2ccccc2C1 (stereo not drawn) | 11%
COc1ccccc1-n1c(-c2ccccc2)c[n+]2c1CCc1ccccc1-2 | -12%&-20%
CCC(Sc1nc2ccccc2c(=O)n1CCc1ccc(OC)c(OC)c1)C(=O)N(CC)CC (stereo not drawn) | 5%
Cc1ccc(S(=O)(=O)N2CCN(C(=O)CCC(=O)OCC(=O)Nc3cccc(C#N)c3)CC2)cc1 | 13%
CC1(c2ccccc2)CC(C)(C)N2C(=O)/C(=C3\SC(=S)NC3=O)c3cccc1c32 (stereo not drawn) | -1%
CCc1ccc(NC(=O)Cn2c(=O)n(CCC(=O)NC3CCN(Cc4ccccc4)CC3)c(=O)c3ccccc32)cc1 | -12%
O=C(NCCS(=O)(=O)NCc1ccccc1)c1ccc2c(c1)OCO2 | -5%

# By substructure: those above containing two or more sulfur atoms.
smiles | VDR inh
CCN(C(=O)CSc1nc2cc(C(F)(F)F)ccc2n1Cc1ccccc1)C1CCS(=O)(=O)C1 (stereo not drawn) | -14%
Cc1cc2cc(CN(Cc3ccco3)S(=O)(=O)c3c(C)ccc4nsnc34)c(=O)[nH]c2cc1C | 11%
COc1ccc(NS(=O)(=O)c2cccc(C(=O)NNC(=O)c3cc(S(N)(=O)=O)ccc3OC)c2)cc1 | 19%
Nc1c(C(=O)C2CC2)sc2nc(-c3cccs3)cc(C(F)(F)F)c12 | -11%
COc1ccc(N2CCN(S(=O)(=O)c3ccc(Cl)s3)CC2)cc1 | 8%
CC1(c2ccccc2)CC(C)(C)N2C(=O)/C(=C3\SC(=S)NC3=O)c3cccc1c32 (stereo not drawn) | -1%

# Further structures.
smiles | VDR inh
C/C(=N/NC(=O)Cc1cccn1C)c1ccccc1 | -3%
CN1CCN(S(=O)(=O)c2ccc(NC(=O)Cc3ccc([N+](=O)[O-])cc3)cc2)CC1 | -6%
CCCCN(CC)CCCNC(=O)c1cc2c(=O)n(C)c3ccccc3c2n1C | 4%
Cc1ccc(NC(=O)c2ccc3[nH]c(C)cc(=O)c3c2)c(C)c1 | 2%
O=C1CCCC2=C1C1(CCCCC1)N=C(Nc1nc3ccccc3s1)N2 | -6%
COc1ccc(NS(=O)(=O)c2ccc(O)c(C(=O)OCC(=O)NC3CCCCC3)c2)cc1 | 6%
CSc1nnc(-c2sc3cc(C(F)(F)F)cnc3c2-c2ccccc2)n1C | 14%
COC(=O)COC(=O)c1ccccc1NC(=O)c1ccccc1 | -22%
COC(=O)CNC(=O)CSc1nc2c(sc(=S)n2-c2ccccc2)c(=O)[nH]1 | -14%
CCOC(=O)C1CCCN(C(=O)c2ccccc2NC(=O)c2nsc3ccccc23)C1 (stereo not drawn) | -2%
O=C(CCn1cnnn1)N1CCCC(Nc2ccc(F)cc2)C1 (stereo not drawn) | 1%
O=C(Nc1ccc(S(=O)(=O)Nc2ncccn2)cc1)C1COc2ccccc2O1 (stereo not drawn) | -10%
COC(=O)c1sc(S(=O)(=O)Nc2ccc(Br)cc2)c(C(=O)OC)c1C | -16%
Cc1ccccc1-n1nc(C)c2cc(C(=O)N3CCOCC3)sc21 | -1%
COCC(C)(C)COS(N)(=O)=O | 3%
Cc1ccc(NC(=S)N(Cc2ccc(Br)cc2)Cc2ccc(C(=O)O)cc2)cc1C | -10%
CC(=O)NS(=O)(=O)c1cccnc1Nc1cccc(Cl)c1 | 11%
Cn1c(COc2ccccc2C(C)(C)C)nc2ccccc21 | 7%
CN(C)Cc1nnnn1-c1cccc(-n2nnnc2CN(C)C)c1 | -2%
COc1ccc(NC(=O)CCn2c(=O)c3cccn3c3cccnc32)cc1Cl | 16%
CCN1CCN(C(=O)C2CCCN(S(=O)(=O)c3cc(Cl)ccc3Cl)C2)CC1 (stereo not drawn) | -21%
Nc1ccc(S(=O)(=O)Nc2ccc(C(=O)c3ccccc3)cc2)cc1 | -17%
Cn1cnc2cc(NC(=O)c3cccs3)ccc21 | 14%
COc1ccc(N2CCN(C(=O)c3ccc(CNS(=O)(=O)c4cccc(OC)c4)cc3)CC2)cc1 | -1%
CCCCCCC(=O)N/N=C/c1ccc(Br)cc1 | 9%
Cc1ccc(NC(=O)CCSCCc2ccccn2)cc1 | -22%&-7%
Cc1ccc(-c2nnc(SCC(=O)N/N=C/c3ccccc3C(=O)O)n2-c2ccc(Cl)cc2)cc1 | 1%
CCn1c(=O)c(C(=O)CN2c3ccccc3CC2C)c(N)n(Cc2ccccc2)c1=O (stereo not drawn) | -5%
COc1ccccc1CNc1ncnc2ccc(-c3ccccc3CN(C)C)cc12 | 3%
COc1c(C)cc(NS(=O)(=O)c2ccc3c(c2)OCCO3)cc1C | -9%
O=C(Nc1cccc(F)c1)c1ccccc1 | -19%
Cc1n[nH]c(=S)n1-c1ccccc1 | 6%
Cc1nc2ccc([N+](=O)[O-])cc2c(=O)n1Cc1cccc(Br)c1 | 0%
Cc1ccc(N2CC(NC(=O)C3CC3)CC2=O)cc1 (stereo not drawn) | -6%
O=C(Nc1cccc(NC(=O)c2ccccc2Cl)c1)c1cccs1 | -7%
CC1=NN(C(C#N)c2ccc([N+](=O)[O-])cc2)C(C)(C)C1 (stereo not drawn) | 10%
O=[N+]([O-])c1ccc(C(=Nc2cccc3ccccc23)N2CCOCC2)cc1 | -4%
O=C(CC1N=C2c3ccccc3N=C(SCC(=O)Nc3ccccc3F)N2C1=O)NCc1ccc2c(c1)OCO2 (stereo not drawn) | -5%
C#CCOCCOCCOCCNc1nc(N2CCN(C(=O)[C@H]([C@@H](C)CC)n3cc([C@@H](N)CO)nn3)CC2)nc(N2CCN(C(=O)[C@H](Cc3ccc(O)cc3)n3cc([C@@H](N)C(C)CC)nn3)CC2)n1 (stereo partly drawn) | 1%
CCC(=O)N1CCN(c2ccc(OC)cc2[N+](=O)[O-])CC1 | 1%
Cc1ccc(S(=O)(=O)Nc2ccc(Cl)cc2)cc1NC(=O)Cn1cnc2c1c(=O)n(C)c(=O)n2C | -15%
O=C(NCC(=O)N(Cc1ccco1)C(C(=O)NC1CCCCC1)c1cccnc1)c1ccco1 (stereo not drawn) | -1%
COc1ccc(OCC(O)CN2CCCCC2)cc1 (stereo not drawn) | -2%
CCOCCOC(=O)c1[nH]c2c(c1C)C(=O)CC(c1ccc(N(C)C)cc1)C2 (stereo not drawn) | -15%
CCN(CC)c1ccc(NC(=O)C2CCN(S(=O)(=O)c3cnc[nH]3)CC2)c(C)c1 | -12%
O=C(Nc1ccccc1N1CCN(c2ccccc2)CC1)c1ccccc1F | 14%
CCN(CC)c1ccc2c(C)cc(=O)oc2c1 | -2%
COc1cc(C2c3sc(=O)[nH]c3SC3C4CCC(C4)C23)ccc1O (stereo not drawn) | -25%
CCc1ccc(CN(Cc2ccco2)C(=O)c2ccc(C)cc2)cc1 | 0%
COc1cccc(-c2sc3ccccc3c2-c2ccc(OCCN3CCCCC3)cc2)c1 | -5%

# 2 records picked at random from those above:
smiles | VDR inh
CCN(CC)c1ccc2c(C)cc(=O)oc2c1 | -2%
CCOCCOC(=O)c1[nH]c2c(c1C)C(=O)CC(c1ccc(N(C)C)cc1)C2 (stereo not drawn) | -15%

# Next compounds
smiles | VDR inh
CCOC(=O)N1CCN(C(=O)Cn2nc(C)c3sc4ccccc4c3c2=O)CC1 | 5%
Clc1ccc(C(c2ccccc2)N2CCN(c3ccccn3)CC2)cc1 (stereo not drawn) | 4%
Cc1cccc2c1cnn2C(=O)CCC(=O)NCc1ccc(F)cc1 | -15%
COc1ccccc1NC(=O)C1CCN(C(=O)c2ccco2)CC1 | 26%
COC(=O)c1scc(-c2ccc(C)cc2)c1S(=O)(=O)N1CCN(c2ccc(C(C)=O)cc2)CC1 | 22%
O=C1c2ccccc2C(=O)N1OCc1ccccc1 | -11%
Nc1nnc(SCC(=O)Nc2ccc(F)c(Cl)c2)n1-c1ccccc1 | 12%
O=c1oc2ccccc2cc1-c1ccccc1 | -5%
CNC(=O)c1cnc(-c2ccccc2)nc1-c1ccccc1 | -11%
Cc1ccc(C)c(Cn2nc(-c3cc(C)ccc3C)ccc2=O)c1 | 3%&10%
CC(Sc1cccc[n+]1[O-])C(=O)NC1CCCCC1C (stereo not drawn) | -17%
Cc1nonc1OCCNCc1c(C(=O)N(C)C)nc2ccc(Cl)cn12 | 4%
CC(C)CN(CC(C)C)CC(O)Cn1cc(/C=C/C(=O)c2ccccc2)c2ccccc21 (stereo not drawn) | 15%
CSc1nnc(CCCCCCCCc2nnc(SC)o2)o1 | -8%
Cn1nc(C(F)(F)F)c(/C=N/OC(=O)c2ccccc2Cl)c1SCc1ccc(Cl)cc1 | -1%
CN(c1ccccc1C(=O)Nc1ccc2c(c1)OCO2)S(C)(=O)=O | -12%
COc1cccc(NC(=O)CCSc2ccc(C)cc2)c1 | 0%
O=C(NCC(=O)N1CCN(S(=O)(=O)c2c(F)cccc2F)CC1)c1ccccc1F | -13%
Nc1nc2n(n1)C(c1ccco1)CC(c1ccc(Cl)cc1)N2 (stereo not drawn) | 5%
CCCOC(=O)c1ccc(NC(=O)c2cccc(S(=O)(=O)N3CCN(C(C)=O)CC3)c2)cc1 | -15%
COC(=O)C1=C(C)N(Cc2ccccc2)C(=O)N[C@@H]1c1ccccc1 | 2%
Cc1cc(SCC(=O)c2ccccc2)nc(SCC(=O)c2ccccc2)n1 | 11%
COC(=O)[C@H](C)NC(=O)NC1CCCc2ccccc21 (stereo partly drawn) | -1%
CC1CCC(NC(=O)c2ccc3c(c2)OCO3)CC1 (stereo not drawn) | 17%
COC(CNC(=O)C1CCCN(S(=O)(=O)c2ccc3c(c2)oc(=O)n3C)C1)OC (stereo not drawn) | -16%
CCc1ccc2nc(NC(=O)c3ccc(N4C(=O)CCC4=O)cc3)sc2c1 | 5%
COc1ccc(-c2ccc(=O)n(CC(=O)NC3CCc4ccccc43)n2)cc1OC (stereo not drawn) | -8%
CCc1cccc(CC)c1NC(=O)CCCSc1nc2ccccc2s1 | -11%
CCCOc1ccc(N2C(=O)CC(N3CCN(C(=O)c4ccco4)CC3)C2=O)cc1 (stereo not drawn) | -4%
Cc1ccc(NC(=O)CN2C(=O)S/C(=C\c3cc(C)n(C)c3C)C2=O)cc1 | 7%
Cc1ccccc1-n1c2nc(=O)n(C)c(=O)c-2cc2ccccc21 | -4%

# Source: PubChem (National Center for Advancing Translational Sciences (NCATS))
